Bioassay records: PubChem, several laboratories
PKD1 kinase inh: blocks activity of human protein kinase D1; inhibition, %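 (about 10 µM by stock and volumes)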; Q15139; AID 797; 0.056% of 200,000 active; PKD1 kinase fluorescence polarization assay;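 active = inhibition of 50% or more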;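 note: controls were vehicle for no effect and a reference inhibitor for full effect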
INS promoter inh: TRM-6 insulin promoter activity inhibition. TRM-6 cells (human fetal islet line), insulin promoter-eGFP reporter, imaging; reporter expression induced with tamoxifen. inhibition, % at 2 µM. 0.9% of 130,000 active;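 active = inhibition above the mean plus 3 SD, with well images judged a real hit on visual review, cut at about 60% in these data, passing the limit was not always enough; inconclusive = inhibition over the cutoff but images rejected on review; inactive = inhibition not above the cutoff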
RGS16-Gao HTS: modulates binding between human RGS16 and Galphao; 0.38% of 220,000 active; bead-based flow cytometry RGS16-Galphao binding, fluorescence; actives lie on both sides; O15492+P09471; binding response (% of control), % at 10 µM;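 active = below 25% or above 175%, edge rows of some plates excepted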;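 note: Galphao activated by GDP with aluminum fluoride before binding; 100% = wells without compound and 0% = beads without RGS; some results beyond the cut were filed as inactive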
Target sequence (O15492 whole entry, looked up): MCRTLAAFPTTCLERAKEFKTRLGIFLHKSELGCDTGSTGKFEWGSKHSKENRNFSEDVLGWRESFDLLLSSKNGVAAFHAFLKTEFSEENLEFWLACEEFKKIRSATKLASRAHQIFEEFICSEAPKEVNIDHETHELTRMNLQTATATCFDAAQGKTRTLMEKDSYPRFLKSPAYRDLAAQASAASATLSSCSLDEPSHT
Target sequence (P09471 whole entry, looked up): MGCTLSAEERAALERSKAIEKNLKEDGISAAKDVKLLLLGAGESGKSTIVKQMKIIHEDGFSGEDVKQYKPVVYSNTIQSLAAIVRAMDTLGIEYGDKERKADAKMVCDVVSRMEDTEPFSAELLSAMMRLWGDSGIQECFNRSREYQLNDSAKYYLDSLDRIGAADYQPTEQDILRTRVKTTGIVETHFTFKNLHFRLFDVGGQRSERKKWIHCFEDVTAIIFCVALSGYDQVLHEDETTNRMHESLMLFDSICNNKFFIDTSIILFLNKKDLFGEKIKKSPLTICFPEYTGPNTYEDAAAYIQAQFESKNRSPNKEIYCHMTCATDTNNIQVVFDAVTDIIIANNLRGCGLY
GALR2 agonist: GALR2 (human) receptor agonism; GALR2-expressing cells, agonist activation read-out; 0.48% of 140,000 active; O43603; activation, %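 (tested at 5 µM)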; AID 803;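 active = above mean plus 3 SD of all compounds, about 5% in these data, not always enough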;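 note: 0% = vehicle buffer wells and 100% = reference agonist at full effect; tested in CHO reporter cells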
Target sequence (O43603 whole entry, looked up): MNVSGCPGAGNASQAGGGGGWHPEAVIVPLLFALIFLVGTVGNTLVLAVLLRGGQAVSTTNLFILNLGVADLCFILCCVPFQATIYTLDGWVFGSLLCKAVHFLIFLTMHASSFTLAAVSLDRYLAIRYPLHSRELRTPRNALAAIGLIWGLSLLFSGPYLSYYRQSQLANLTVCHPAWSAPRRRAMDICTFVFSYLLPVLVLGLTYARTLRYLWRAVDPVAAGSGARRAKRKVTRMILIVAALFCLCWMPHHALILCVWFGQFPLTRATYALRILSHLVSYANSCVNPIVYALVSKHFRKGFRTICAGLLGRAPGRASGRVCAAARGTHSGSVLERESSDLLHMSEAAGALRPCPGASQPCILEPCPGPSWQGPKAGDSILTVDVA
HSV replic up: increases HSV replication in cells; HSV replication augmentation in cells, fold increase; AID 1956; 0.005% of 220,000 active; maximum fold increase;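 active = peak rise of 1.5-fold or more in the series; inconclusive = self-fluorescent or not available for retest; tested in PC3 cells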;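 note: first round at 10 µM; read as green reporter fluorescence; hits show the peak of a series up to 25 µM; 1 = signal of infected wells without compound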
INS promoter inh cell count: recorded beside INS promoter inh, whose call it bears; normalized cell count, %; measured here: cell count, toxicity; reference of the scale not given here;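 cells exposed to compound for 48 h; stained nuclei by imaging scaled within each plate; lower means fewer cells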
HSV replic up primary fold: recorded beside HSV replic up, whose call it bears; fold increase; compound at 10 µM; measured here: primary screen fold increase 10 uM; tested in PC3 cells;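 GFP signal in the first replicate; 1 = infected wells without compound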
An asterisk follows results filed as active; i = inactive; ? = inconclusive; · = not tested or not shown.

Under each structure – PKD1 kinase inh	INS promoter inh	INS promoter inh cell count	RGS16-Gao HTS	GALR2 agonist	HSV replic up	HSV replic up primary fold
> COC(=O)C1C(=O)c2c([nH]c(C(=O)OCCSC)c2C)CC1C (stereo not given)
→ -3	·	·	132	-0.5	i	0.97
> CCOC(=O)Cc1c(C)nc2c(-c3ccccc3)cnn2c1C
→ -3	·	·	108	·	i	1
> CCOC(=O)Nc1ccc(NC(=O)c2c(OC)cccc2OC)cc1
→ 6	27	117	101	-2.7	i	0.94
> Cc1n[nH]c(C)c1CCN(C)Cc1cn(C)nc1-c1ccccc1F
→ -3	·	·	108	·	i	1.1
> Cc1cc(N/N=C/c2c(O)ccc3ccccc23)nc(-c2ccccc2O)n1
→ 3	18	118	103	-0.6	i	0.83
> Cc1ccccc1-c1nc2sc3c(c2c(=O)n1N)CCCC3
→ 4	-18	162	102	-1.2	i	0.9
> Cc1sc2nc(-c3ccccc3)oc(=O)c2c1C
→ -6	·	·	102	·	i	0.9
> CNC(=O)NC(=O)CSc1nnc(-c2ccc(F)cc2)n1CC1CCCO1 (stereo not given)
→ -8	·	·	91	·	i	0.99
> c1cncc(-c2nc3cc4ccccc4cc3[nH]2)c1
→ -13	40	140	102	-1.4	i	0.79
> C=CCc1cccc(/C=N/c2ncccc2O)c1O
→ -13	10	156	94	0.0	i	1
> CCOC(=O)c1cnc2nc(C(F)(F)F)[nH]n2c1=O
→ -9	46	86	99	-1.9	i	0.97
> Cc1nn(C(C)CC(=O)O)c(C)c1Br (stereo not given)
→ 3	12	86	51	-3.1	·	·
> Cc1cc(C(F)F)nn1CC(=O)NCc1ccc(Cl)cc1Cl
→ -7	-18	111	102	-0.8	i	0.97
> O=C(c1ccco1)N1CCN(S(=O)(=O)c2ccc(F)cc2)CC1
→ 0	23	112	106	-0.6	i	0.87
> O=C(NNC(=S)NCc1ccccc1)c1ccc2c(c1)OCO2
→ -4	50	66	73	-2.1	i	1.1
> C=CCOc1cccc(C2/C(=C(/O)c3ccccc3)C(=O)C(=O)N2CCN2CCOCC2)c1 (stereo not given)
→ -2	-40	135	102	-3.1	i	0.86
> CCn1c(-c2cc(-c3cccc(OC)c3)nc3ccccc23)n[nH]c1=S
→ 6	-13	114	92	-0.9	i	0.91
> Fc1ccc(-n2nnnc2-c2cnc(-c3cccs3)nc2C(F)(F)F)cc1
→ 1	·	·	104	-1.2	i	0.69
> CCOc1ccc(-n2c(SCC(=O)NCc3ccco3)nc3c(c2=O)SCC3)cc1
→ -10	-246	66	98	-0.8	i	0.85
> CCC(NC(=O)NC1=NCCS1)(C(F)(F)F)C(F)(F)F
→ 1	·	·	111	-2.0	i	0.96
> COc1ccc2c(c1)CCC/C2=N\OC(=O)c1ccccc1F
→ -5	·	·	103	·	i	0.91
> CCCNC(=O)CN1C(=O)NC(Cc2c[nH]c3ccccc23)C1=O (stereo not given)
→ -6	·	·	100	·	i	0.96
> C1=Nc2c(NCc3ccccc3)ncnc2Oc2ccccc21
→ 7	25	112	103	-1.5	i	0.91
> Cc1sc2ncnc(SCc3ccco3)c2c1C
→ -8	-25	78	103	-2.6	i	1.1
> N#Cc1cnn(-c2nc(SCc3ccccc3)nc3sc4c(c23)CCCC4)c1N
→ 4	40	103	101	-0.5	i	1.1
> CCOC(=O)Cn1c(=O)c(-c2ccccc2N)nc2ccccc21
→ ·	·	·	98	·	i	0.94
> Cc1ccc2nc(Cl)c(CNCc3ccccc3)cc2c1
→ -1	14	75	105	·	i	0.88
> O=c1c2ccccc2nnn1-c1ccc(Br)cc1
→ ·	·	·	101	·	i	0.97
> CCOc1ccc(CCN2CN(CC)CNC2=S)cc1OCC
→ -6	-21	132	104	·	i	1
> COC(=O)C1CCN(c2nc3ccccc3nc2C(C#N)C(=O)OCC(C)C)CC1 (stereo not given)
→ -14	25	74	102	-1.5	i	0.96

4 entries from above, arranged by the value under HSV replic up primary fold, falling:
molecule | HSV replic up primary fold
Cc1sc2ncnc(SCc3ccco3)c2c1C | 1.1
CCOc1ccc(CCN2CN(CC)CNC2=S)cc1OCC | 1
COC(=O)C1C(=O)c2c([nH]c(C(=O)OCCSC)c2C)CC1C (stereo not given) | 0.97
C1=Nc2c(NCc3ccccc3)ncnc2Oc2ccccc21 | 0.91

(continued)
Under each structure – PKD1 kinase inh	INS promoter inh	INS promoter inh cell count	RGS16-Gao HTS	GALR2 agonist	HSV replic up	HSV replic up primary fold
> Fc1ccccc1COc1ccc(Br)cc1CNCc1cccnc1
→ -4	·	·	113	·	i	1.1
> COc1ccc(Cc2nnc(N/N=C/c3ccc(O)cc3)[nH]c2=O)cc1OC
→ -4	·	·	103	-1.3	i	0.73
> Nc1ccc2cn[nH]c2c1
→ -6	0	79	55	0.1	i	0.9
> CC(C)Cn1c([N+](=O)[O-])nc2c1c(=O)[nH]c(=O)n2C
→ ·	·	·	100	·	i	0.44
> COc1ccc2c(Cl)c(C(=O)N/N=C3\CCCC(=O)C3)sc2c1
→ -6	·	·	96	·	?	·
> CCn1c(SCC(=O)Nc2cc(OC)c(OC)c(OC)c2)nnc1-c1cccs1
→ -8	·	·	100	0.3	i	0.92
> C=CCNC(=O)C1CC2Cn3c(nc4ccccc43)C2N1C (stereo not given)
→ ·	·	·	96	·	i	1.4
> COCCNC(=O)CN(Cc1ccc2c(c1)OCO2)C(=O)CCC(=O)Nc1nccs1
→ 3	33	83	97	-0.7	i	0.98
> O=C(NCc1cccs1)c1ccc2c(c1)OCCO2
→ -5	62	47	103	-3.9	i	0.91
> Cc1cc(=O)[nH]c(SCC(=O)N2CCc3ccccc3C2)n1
→ -3	-11	106	102	0.1	i	0.93
> Cc1ccc(S(=O)(=O)c2nc(-c3ccco3)oc2NCC2CCCO2)cc1 (stereo not given)
→ 3	-15	90	111	-1.4	i	0.98
> S=C1NC2(CCCCC2)Nc2ccccc21
→ -4	·	·	96	·	i	0.97
> CC(=O)Nc1ccc(NC(=O)C(F)(F)F)cc1
→ -10	28	102	·	0.1	i	0.91
> CCN(CC)c1ccc(/C=N/NC(=O)Cc2nnc(NC(=O)Nc3ccccc3)s2)cc1
→ 1	-33	125	94	-0.1	i	1
> CCOC(=O)C1C(=O)C=C(/C=C/c2ccccc2)CC1c1ccc(Cl)cc1 (stereo not given)
→ 11	·	·	101	-1.7	i	0.97
> Cc1ccc(OCC(=O)NCc2cccs2)c([N+](=O)[O-])n1
→ -4	-35	79	102	·	i	1.1
> Cc1ccc(-n2c(C)c3c(C)nnc(C)c3c2C)cc1C
→ 7	-45	24	100	0.0	i	1
> COc1ccc(CNC(=O)C(c2ccncc2)N(C(=O)Cc2cccs2)c2ccc(C)cc2)cc1 (stereo not given)
→ 14	0	111	-372	0.5	i	1
> COc1cccc(-c2cc(N3C(=O)Nc4ccccc4N3O)n[nH]2)c1
→ -2	·	·	100	-0.6	i	0.91
> Cc1ccc(C(=O)NCC(=O)N/N=C/c2sccc2C)cc1[N+](=O)[O-]
→ -2	·	·	102	·	i	0.96
> Cc1ccc(C)c(N2CCN(C(=O)c3ccc(Cn4c(=S)[nH]c5ccc(N6CCOCC6)cc5c4=O)cc3)CC2)c1
→ -7	-55	147	101	·	i	0.87
> CCC(C(=O)OC)n1cnc2c(nnn2-c2ccc(OC)cc2)c1=O (stereo not given)
→ -2	-6	71	105	-0.6	i	0.97
> CCOC(=O)c1cc(-c2ccc(F)cc2)n(CC(=O)N2CCCC2)c1C
→ -9	-100	24	109	0.5	i	0.94
> c1ccc2oc(NC3=NCN(CC4CCCO4)CN3)nc2c1 (stereo not given)
→ -8	·	·	98	-1.3	i	0.93
> Cc1ccc(C(=O)NCC(C)(C)N2CCOCC2)s1
→ 4	7	89	97	-0.9	i	0.69
> COC(=O)c1ccc(Oc2coc3cc(OCc4ccc([N+](=O)[O-])cc4)ccc3c2=O)cc1
→ -3	-3	77	85	-0.8	i	1.2
> CCOc1ccc(CC(=O)NNC(=S)NC)cc1
→ ·	·	·	99	·	i	0.91
> CCC(=O)Nc1ccc(Cl)c(NC(=S)NC(=O)COc2ccc(Cl)cc2)c1
→ 0	-20	172	109	-0.2	i	0.97
> Cc1oc2ccc(OCC(N)=O)cc2c1C(=O)OC(C)C
→ -6	15	130	105	-0.5	i	0.85
> COc1ccc(NC(=O)Cn2cnc3c(cnn3-c3ccc(C)c(C)c3)c2=O)c(OC)c1
→ -10	43	121	95	-0.7	i	0.84

(listing goes on)
Under each structure – PKD1 kinase inh	INS promoter inh	INS promoter inh cell count	RGS16-Gao HTS	GALR2 agonist	HSV replic up	HSV replic up primary fold
> CCCCC(=O)Nc1nnc(SCC(=O)NC2CCCC2)s1
→ 5	31	119	73	-0.5	i	0.9
> CCCNC(=O)CCC(NS(=O)(=O)c1ccc(C)cc1)C(=O)NCCC (stereo not given)
→ -5	-162	80	104	-1.4	i	1.1
> Cc1ccc(NC(=O)NCCSc2ccc(C)cc2)cc1
→ 1	·	·	98	·	i	1
> CCSC1=C(C#N)C(CC(C)C)C2=C(CCCC2=O)N1 (stereo not given)
→ ·	·	·	94	·	i	0.91
> CCOc1cc(CN2CCN(Cc3ccc(C)o3)C(CCO)C2)ccc1OC (stereo not given)
→ 1	·	·	104	·	i	0.98
> NC(=O)c1cn(-c2ccccc2)nc1-c1cc2ccccc2oc1=O
→ -6	7	84	101	-2.4	i	0.91
> O=S(=O)(c1ccc(-c2csc(-c3cccnc3)n2)cc1)N1CCOCC1
→ 3	·	·	80	·	i	0.98
> CCN1CCN(CC(=O)Nc2ccc(C)cc2C)C(=O)C1=O
→ -7	·	·	99	-1.4	i	0.88
> CNC(=O)CSCc1cnn(-c2ccccc2)c1-n1cccc1
→ -4	27	108	114	-1.5	i	1.1
> C=CCN(c1ccccc1)S(=O)(=O)c1cccc(C(=O)Nc2nnc(SCC)s2)c1
→ -13	31	98	106	-0.6	i	0.93
> CC(=O)Nc1ccc(NC(=O)c2c(C)nn(-c3ccccc3)c2Cl)cc1C
→ 3	33	97	104	·	i	0.67
> COc1ccc(CCNC(=O)CSc2nc(C)nc3c2oc2ccccc23)cc1OC
→ 0	18	110	108	-1.6	i	0.94
> Cc1ccc(OCC(=O)N2CCN(c3ccc([N+](=O)[O-])c(N4CCOCC4)c3)CC2)cc1
→ -2	·	·	98	-1.6	i	0.83
> COc1ccccc1NC(=O)c1ccc(C(=O)c2ccccc2)o1
→ 13	18	146	101	·	i	0.94
> CC(=O)C(Sc1ccc2nnc(-c3ccncc3)n2n1)C(C)=O
→ -2	·	·	103	-3.1	i	0.96
> COc1cccc(-n2nnc3c(=O)n(Cc4c(F)cccc4Cl)cnc32)c1
→ -8	30	117	104	-2.0	i	0.92
> CCCNC(=O)CSCc1nc(-c2ccc(SC)cc2)oc1C
→ 1	0	77	102	·	i	1.2
> O=C(O)Cc1ccc(NC(=O)Nc2cccc(Cl)c2)cc1
→ -6	·	·	109	·	i	0.94
> COC(=O)[C@@H]1C[C@@]2(O)[C@@H](O)[C@@H](O)[C@@H](O)C[C@H]2N1Cc1ccc(Cl)cc1
→ ·	·	·	105	·	i	0.84
> CCc1cccc2c(C(=O)COC(=O)c3ccc([N+](=O)[O-])s3)c[nH]c12
→ -10	-17	87	89	-0.1	i	0.73
> O=C(NC(Cc1c[nH]c2ccccc12)c1nnc2n1CCCCC2)c1cccs1 (stereo not given)
→ -3	-279	49	104	-2.6	i	0.69

Reprinted at random: five records from the list.
Under each structure – PKD1 kinase inh	INS promoter inh	INS promoter inh cell count	RGS16-Gao HTS	GALR2 agonist	HSV replic up	HSV replic up primary fold
> CCc1cccc2c(C(=O)COC(=O)c3ccc([N+](=O)[O-])s3)c[nH]c12
→ -10	-17	87	89	-0.1	i	0.73
> CCSC1=C(C#N)C(CC(C)C)C2=C(CCCC2=O)N1 (stereo not given)
→ ·	·	·	94	·	i	0.91
> CCCNC(=O)CSCc1nc(-c2ccc(SC)cc2)oc1C
→ 1	0	77	102	·	i	1.2
> C=CCN(c1ccccc1)S(=O)(=O)c1cccc(C(=O)Nc2nnc(SCC)s2)c1
→ -13	31	98	106	-0.6	i	0.93
> COC(=O)[C@@H]1C[C@@]2(O)[C@@H](O)[C@@H](O)[C@@H](O)C[C@H]2N1Cc1ccc(Cl)cc1
→ ·	·	·	105	·	i	0.84
